Bioassay records as filed in PubChem BioAssay.
NOMO-1 viab: NOMO-1 AML cell viability reduction, primary screen, STK33 inhibitor project, CellTiter-Glo luminescence; 37,000 tested, 7.5% active; AID 2330, 2010; NOMO-1 AML viability, 72 h; inhibition, % (concentration not given with the values);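 active = most replicates above 80%; inconclusive = exactly half above 80%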;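 also: wells of about 30 µL received 25 nL stock; 0% = median of vehicle wells and 100% = reference inhibitor level; the first replicate is given; inactives centre near 10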
Numbers without * were called inactive. Some of the compounds tested; count on the stated rates, not on these rows.

A first look, 7 compounds:
`COC(=O)c1ccc(Cl)c(NC(=O)CN(c2ccc(I)cc2)S(C)(=O)=O)c1` gave NOMO-1 viab 120*.
`C[C@@H]1CN([C@@H](C)CO)C(=O)c2cc(NC(=O)CCN3CCOCC3)ccc2O[C@@H]1CN(C)C(=O)NC1CCCCC1` gave NOMO-1 viab -4.
`CC12CC(c3ccoc3)OC(=O)C1CCC1(C)C2C2OC(=O)C1(O)C1OC21` (configuration not stated) gave NOMO-1 viab -3.
`C[C@@H]1CN([C@H](C)CO)C(=O)Cc2cc(NC(=O)Nc3ccc4c(c3)OCO4)ccc2O[C@H]1CN(C)Cc1ccc(-c2ccccc2)cc1` gave NOMO-1 viab 98*.
C[C@@H]1CN([C@@H](C)CO)C(=O)Cc2cc(NC(=O)NC3CCCCC3)ccc2O[C@@H]1CN(C)S(=O)(=O)c1cn(C)cn1 was read as NOMO-1 viab 14.
CCOC(=O)c1c(CNC(C)C)oc2ccc(OC)cc12 was read as NOMO-1 viab 12.
Screening C[C@@H]1CN([C@H](C)CO)C(=O)Cc2cc(NS(=O)(=O)c3cn(C)cn3)ccc2O[C@H]1CN(C)Cc1ccc(Cl)c(Cl)c1 returned NOMO-1 viab 2.

The listing, from the first entry:
`COC(=O)c1ccc(Cl)c(NC(=O)CN(c2ccc(I)cc2)S(C)(=O)=O)c1` gave NOMO-1 viab 120*.
`C[C@@H]1CN([C@@H](C)CO)C(=O)c2cc(NC(=O)CCN3CCOCC3)ccc2O[C@@H]1CN(C)C(=O)NC1CCCCC1` gave NOMO-1 viab -4.
`CC12CC(c3ccoc3)OC(=O)C1CCC1(C)C2C2OC(=O)C1(O)C1OC21` (configuration not stated) gave NOMO-1 viab -3.
`C[C@@H]1CN([C@H](C)CO)C(=O)Cc2cc(NC(=O)Nc3ccc4c(c3)OCO4)ccc2O[C@H]1CN(C)Cc1ccc(-c2ccccc2)cc1` gave NOMO-1 viab 98*.
C[C@@H]1CN([C@@H](C)CO)C(=O)Cc2cc(NC(=O)NC3CCCCC3)ccc2O[C@@H]1CN(C)S(=O)(=O)c1cn(C)cn1 was read as NOMO-1 viab 14.
CCOC(=O)c1c(CNC(C)C)oc2ccc(OC)cc12 was read as NOMO-1 viab 12.
Screening C[C@@H]1CN([C@H](C)CO)C(=O)Cc2cc(NS(=O)(=O)c3cn(C)cn3)ccc2O[C@H]1CN(C)Cc1ccc(Cl)c(Cl)c1 returned NOMO-1 viab 2.
Cc1ccccc1NC(=O)c1ccccc1NC(=O)c1ccccc1 was read as NOMO-1 viab 30.
`C[C@@H]1CCCCO[C@H](CN(C)Cc2ccncc2)[C@@H](C)CN([C@H](C)CO)C(=O)c2cc(NC(=O)Nc3ccc(C(F)(F)F)cc3)ccc2O1` gave NOMO-1 viab inconclusive.
For C=C(C)Cc1c(C)nc(-c2ccc(Cl)cc2)nc1OC(=S)N(CC)CC the results were NOMO-1 viab 59.
`C[C@@H]1CN([C@@H](C)CO)C(=O)c2cccc(NC(=O)Nc3ccc(F)cc3)c2O[C@H]1CN(C)Cc1ccc(C(=O)Nc2ccccc2N)cc1` gave NOMO-1 viab 125*.
For COC(=O)CSc1nc(C)c2c(n1)CCCC2 the results were NOMO-1 viab -15.
O=C(c1cc2nc(-c3ccco3)cc(C(F)(F)F)n2n1)N(Cc1ccccc1)Cc1ccccc1 was read as NOMO-1 viab 74.
Screening C[C@H]1CN([C@@H](C)CO)C(=O)c2cc(NC(=O)CCC(F)(F)F)ccc2O[C@H]1CN(C)Cc1ccccc1 returned NOMO-1 viab 13.
Screening C=C(C)C(=O)O[C@H]1[C@H]2C(=C)C(=O)O[C@@H]2C[C@@H](C)/C=C/C(=O)[C@](C)(O)[C@@H]1OC(C)=O returned NOMO-1 viab 118*.
Screening C[C@H]1CN([C@@H](C)CO)C(=O)Cc2cc(NS(=O)(=O)c3cccs3)ccc2O[C@H]1CN(C)Cc1ccccc1 returned NOMO-1 viab 1.
For COc1ccc(CN(C)C[C@@H]2Oc3ccc(NC(=O)Nc4ccc(OC)cc4)cc3C(=O)N([C@H](C)CO)C[C@H]2C)cc1 the results were NOMO-1 viab 4.
Screening COc1ccccc1NC(=O)C1=C(C)Nc2ncnn2C1c1ccccc1C(=O)O (configuration not stated) returned NOMO-1 viab -13.
Screening C[C@H]1CN([C@@H](C)CO)C(=O)Cc2cc(NS(=O)(=O)c3ccccc3)ccc2O[C@H]1CN(C)CC1CC1 returned NOMO-1 viab -7.
C[C@@H]1CCCCO[C@@H](CN(C)CC2CC2)[C@@H](C)CN([C@H](C)CO)C(=O)c2cc(NC(=O)Nc3ccc(C(F)(F)F)cc3)ccc2O1 was read as NOMO-1 viab 119*.
`C[C@@H]1CN([C@@H](C)CO)C(=O)c2cccc(NC(=O)c3cnccn3)c2O[C@@H]1CN(C)C(=O)Nc1ccccc1` gave NOMO-1 viab 11.
COC(=O)C1=CO[C@@H](O[C@@H]2O[C@H](CO)[C@@H](O)[C@H](O)[C@H]2O)[C@H]2[C@@H]1[C@H](OC(C)=O)C[C@]2(C)O was read as NOMO-1 viab -10.
`COc1ccc(NC(=O)Nc2ccc3c(c2)CC(=O)N([C@@H](C)CO)C[C@@H](C)[C@@H](CN(C)CC2CC2)O3)cc1` gave NOMO-1 viab 0.
For Nc1nnc(SCC(=O)Nc2ccc(F)c(Cl)c2)s1 the results were NOMO-1 viab 10.
COc1ccc(CN(C)C[C@@H]2Oc3ccc(NC(=O)Nc4cccc5ccccc45)cc3C(=O)N([C@@H](C)CO)C[C@H]2C)cc1 was read as NOMO-1 viab 26.
For O=C(Nc1ccc(Cl)cc1Cl)C1CC(=O)n2ncnc2N1 (configuration not stated) the results were NOMO-1 viab 13.
`C[C@H](CO)N1C[C@H](C)[C@@H](CN(C)C(=O)NC2CCCCC2)Oc2ccc(NC(=O)Cc3cn(C)c4ccccc34)cc2C1=O` gave NOMO-1 viab -4.
Screening CC(C)NC(=O)Nc1ccc2c(c1)CC(=O)N([C@H](C)CO)C[C@@H](C)[C@@H](CN(C)Cc1ccc(C(=O)Nc3ccccc3N)cc1)O2 returned NOMO-1 viab 61.
For COc1ccc(NC(=O)Nc2cccc3c2O[C@@H](CN(C)CC2CCCCC2)[C@H](C)CN([C@H](C)CO)C3=O)cc1 the results were NOMO-1 viab 67.
`O=C(Nc1cccc(CCc2ccccn2)c1)c1ccc(Cl)cc1` gave NOMO-1 viab 32.
Screening COc1cc(O)c2c(=O)c(O[C@@H]3O[C@@H](CO)[C@H](O)[C@H]3O[C@@H]3O[C@@H](C)[C@H](O)[C@@H](O)[C@H]3O)c(-c3ccc(O)cc3)oc2c1 returned NOMO-1 viab 17.
For O=C(Nc1cccc(Cn2cccn2)c1)c1cc(-c2ccncc2)nc2ccc(Br)cc12 the results were NOMO-1 viab 29.
For C[C@@H]1CN([C@H](C)CO)C(=O)Cc2cc(NC(=O)Cn3cnnn3)ccc2O[C@@H]1CN(C)S(=O)(=O)c1cccs1 the results were NOMO-1 viab 7.
C[C@@H]1CN([C@H](C)CO)C(=O)c2cccc(NC(=O)CCCCCC(=O)Nc3ccccc3N)c2O[C@@H]1CN(C)Cc1ccc2c(c1)OCO2 was read as NOMO-1 viab 68.
COc1ccc(NC(=O)Nc2cccc3c2O[C@@H](CN(C)S(C)(=O)=O)[C@@H](C)CN([C@@H](C)CO)C3=O)cc1 was read as NOMO-1 viab -13.
`C=CCNC(=O)c1cnn2c(C(F)(F)F)cc(-c3cccs3)nc12` gave NOMO-1 viab 12.
Screening Cc1ccc(S(=O)(=O)Nc2ccc3c(c2)C(=O)N([C@H](C)CO)C[C@@H](C)[C@H](CN(C)Cc2ccc4c(c2)OCO4)O3)cc1 returned NOMO-1 viab 13.
Screening COC(=O)c1ccccc1NC(=O)CSc1nnc(C23CC4CC(CC(C4)C2)C3)n1C returned NOMO-1 viab -4.
`C[C@H](CO)N1C[C@H](C)[C@H](CN(C)Cc2ccc(Oc3ccccc3)cc2)Oc2ccc(NC(=O)Cc3cn(C)c4ccccc34)cc2C1=O` gave NOMO-1 viab 60.
For CSc1nc(Nc2cccc(C(F)(F)F)c2)cc(C(F)(F)F)c1C#N the results were NOMO-1 viab 5.
For C[C@@H]1CN([C@H](C)CO)C(=O)Cc2cc(NC(=O)CCCCCC(=O)Nc3ccccc3N)ccc2O[C@@H]1CN(C)C(=O)NC1CCCCC1 the results were NOMO-1 viab 23.
Screening CS(=O)(=O)N(CC(=O)Nc1ccccc1Sc1ccccc1)c1ccc(F)cc1 returned NOMO-1 viab 4.
For C[C@H]1CN([C@@H](C)CO)C(=O)c2cc(NC(=O)Cc3ccccc3)ccc2O[C@H]1CN(C)CC1CCCCC1 the results were NOMO-1 viab 13.
C[C@@H]1CN([C@H](C)CO)C(=O)c2cccc(NC(=O)Nc3cccc4ccccc34)c2O[C@@H]1CN(C)C(=O)Nc1ccc2c(c1)OCO2 was read as NOMO-1 viab 19.
For C[C@H](CO)N1C[C@H](C)[C@H](CN(C)Cc2ccc(C(F)(F)F)cc2)Oc2c(NC(=O)Nc3ccccc3)cccc2C1=O the results were NOMO-1 viab 48.
COc1cc(OC)cc(-c2nnc(SCC(=O)c3cccc([N+](=O)[O-])c3)o2)c1 was read as NOMO-1 viab -21.
C[C@@H]1CN([C@H](C)CO)C(=O)Cc2cc(NC(=O)NC3CCCCC3)ccc2O[C@H]1CN(C)S(C)(=O)=O was read as NOMO-1 viab -8.
Screening C[C@@H]1CCCCO[C@@H](CN(C)Cc2ccc3c(c2)OCO3)[C@@H](C)CN([C@H](C)CO)C(=O)c2cc(NS(=O)(=O)c3cn(C)cn3)ccc2O1 returned NOMO-1 viab 17.
Screening COc1ccc(CN(C)C[C@@H]2Oc3ccc(NC(=O)Nc4c(C)noc4C)cc3C(=O)N([C@H](C)CO)C[C@H]2C)cc1 returned NOMO-1 viab -2.
For C[C@H](CO)N1C[C@H](C)[C@H](CN(C)Cc2ccc3c(c2)OCO3)Oc2ccc(NC(=O)Nc3ccc(C(F)(F)F)cc3)cc2C1=O the results were NOMO-1 viab 99*.
Screening C[C@H]1CN([C@@H](C)CO)C(=O)Cc2cc(NC(=O)CCCCCC(=O)Nc3ccccc3N)ccc2O[C@H]1CN(C)C returned NOMO-1 viab inconclusive.
COc1cccc2cc(-c3nnc(SCC(=O)Nc4sc5c(c4C#N)CCCC5)n3C)oc12 was read as NOMO-1 viab 14.
Screening CCOc1ccc(NC(=O)CSc2n[nH]c(=O)n2-c2ccccc2)cc1 returned NOMO-1 viab -5.
C[C@@H]1CN([C@H](C)CO)C(=O)c2cc(NS(=O)(=O)c3cn(C)cn3)ccc2O[C@@H]1CN(C)S(=O)(=O)c1cn(C)cn1 was read as NOMO-1 viab -10.
For C[C@H]1CN([C@@H](C)CO)C(=O)Cc2cc(NC(=O)Nc3ccccc3)ccc2O[C@H]1CN(C)S(=O)(=O)c1ccc(F)cc1 the results were NOMO-1 viab inconclusive.
COc1ccc(S(=O)(=O)Nc2ccc3c(c2)C(=O)N([C@H](C)CO)C[C@@H](C)[C@@H](CN(C)Cc2ccc4c(c2)OCO4)O3)cc1 was read as NOMO-1 viab 22.
For C[C@@H]1CN([C@H](C)CO)C(=O)c2cccc(NC(=O)c3ccncc3)c2O[C@H]1CN(C)Cc1ccc(-c2ccccc2)cc1 the results were NOMO-1 viab 57.
Screening Cn1nnnc1SCC(=O)Nc1cc(Cl)cc(Cl)c1 returned NOMO-1 viab -16.
For COC(=O)c1ccc2c(c1)nc(C)n2CCO the results were NOMO-1 viab 7.
Screening C[C@H]1CN([C@@H](C)CO)C(=O)Cc2cc(NC(=O)Nc3ccc(C(F)(F)F)cc3)ccc2O[C@H]1CN(C)CC1CCCCC1 returned NOMO-1 viab 130*.
C[C@H]1CN([C@@H](C)CO)C(=O)c2cccc(NC(=O)c3nc4ccccc4s3)c2O[C@H]1CN(C)C(=O)Nc1ccc(F)cc1 was read as NOMO-1 viab 39.
Screening C[C@H](CO)N1C[C@H](C)[C@@H](CN(C)C)Oc2c(NC(=O)C3CC3)cccc2C1=O returned NOMO-1 viab 13.
For COc1ccccc1CC(=O)Nc1ccc(-c2noc(-c3ccc(OC)c(OC)c3)n2)cc1 the results were NOMO-1 viab 44.
Screening C[C@@H]1CN([C@@H](C)CO)C(=O)c2cccc(NS(=O)(=O)c3cccs3)c2O[C@H]1CN(C)C returned NOMO-1 viab -4.
For C[C@H]1CN([C@@H](C)CO)C(=O)c2cc(NS(=O)(=O)c3ccc(Cl)cc3)ccc2O[C@@H]1CN(C)Cc1ccc(C(=O)O)cc1 the results were NOMO-1 viab 31.
`C[C@H]1CN([C@@H](C)CO)C(=O)Cc2cc(NC(=O)CCN3CCOCC3)ccc2O[C@H]1CN(C)Cc1ccc2c(c1)OCO2` gave NOMO-1 viab -4.
C[C@@H]1CN([C@H](C)CO)C(=O)Cc2cc(NC(=O)NC3CCCCC3)ccc2O[C@@H]1CN(C)C(=O)NC1CCCCC1 was read as NOMO-1 viab 17.
`COc1ccc(CN(C)C[C@H]2Oc3c(NS(=O)(=O)c4ccc(Cl)cc4)cccc3C(=O)N([C@H](C)CO)C[C@@H]2C)cc1` gave NOMO-1 viab -1.
Screening Cc1noc(C)c1S(=O)(=O)Nc1ccc2c(c1)C(=O)N([C@@H](C)CO)C[C@H](C)[C@@H](CN(C)S(=O)(=O)c1ccccc1)O2 returned NOMO-1 viab -9.
For Cc1cc(N(CC(=O)Nc2cccc(C(F)(F)F)c2)S(C)(=O)=O)ccc1Br the results were NOMO-1 viab 57.
Screening C[C@H](CO)N1C[C@H](C)[C@H](CN(C)Cc2ccccc2)Oc2c(NC(=O)c3cnccn3)cccc2C1=O returned NOMO-1 viab 12.
For Cc1ccc(S(=O)(=O)Nc2ccc3c(c2)C(=O)N([C@H](C)CO)C[C@H](C)[C@@H](CN(C)S(=O)(=O)c2cccs2)OCCCC[C@@H](C)O3)cc1 the results were NOMO-1 viab 34.
Cc1noc(C)c1NC(=O)N(C)C[C@H]1OCCCC[C@@H](C)Oc2ccc(NC(=O)NC(C)C)cc2C(=O)N([C@H](C)CO)C[C@@H]1C was read as NOMO-1 viab 8.
